T. gondii: Toxoplasma gondii ME49Luc growth in HeLa cells, luciferase, no IFN-y, primary screen (AID 1259421); T. gondii ME49Luc in HeLa, luciferase, 72 h, no IFN-y; stronger effect = lower value; reference of the scale and settings of repeat entries not given here; many of its hits are not listed in these tables; activity change, negative = inhibition, %; 6,400 compounds, 9.6% hits;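 active = activity change below -70%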;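 note: about 20 µM from a 10 mM stock diluted 500-fold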
Numbers without * were called inactive; & = joins results of further samples.

`COc1ccc(/C=C/C(=O)Nc2ccccc2C(=O)O)cc1OC` gave T. gondii 229.9&199.7&191.8.
For C=CC1=C(C(=O)O)N2C(=O)[C@@H](NC(=O)/C(=N\O)c3csc(N)n3)[C@H]2SC1 (stereo in doubt) the results were T. gondii 6.8.
Screening Cc1nc(C(=O)NCC(=O)O)c(O)c2ccc(Oc3ccccc3)cc12 returned T. gondii 5.3.
For COc1ccc(-n2nc(C(N)=O)c3c2C(=O)N(c2ccc(N4CCCCC4=O)cc2)CC3)cc1 the results were T. gondii 3.8.
For CN(C)C/C=C/C(=O)Nc1cc2c(Nc3ccc(F)c(Cl)c3)ncnc2cc1O[C@H]1CCOC1 the results were T. gondii -87.8*.
`Nc1nc(OCc2cc(Br)cs2)c2[nH]cnc2n1` gave T. gondii 22.2.
Nc1nc(=O)n([C@@H]2O[C@H](CO)[C@@H](O)[C@@H]2F)cc1I was read as T. gondii 9.8.
For CC(=O)c1ccc(S(=O)(=O)NC(=O)NC2CCCCC2)cc1 the results were T. gondii 16.0.
`CN(C(=O)CCCOc1ccc2[nH]c(=O)ccc2c1)C1CCCCC1` gave T. gondii -2.9&15.6&0.7.
`Cc1cc(-c2ccccc2)nnc1NCCN1CCOCC1` gave T. gondii 6.8&12.9.
For O=C(O)c1ccc[n+]([O-])c1 the results were T. gondii 9.3.
NC(=O)c1cn(Cc2c(F)cccc2F)nn1 was read as T. gondii 12.3.
For COCCCOc1cc(C[C@@H](C[C@H](N)[C@@H](O)C[C@H](C(=O)NCC(C)(C)C(N)=O)C(C)C)C(C)C)ccc1OC the results were T. gondii 20.7&5.6.
For N[C@@H](CC(=O)Nc1ccc(Oc2cc(F)c(F)cc2Br)cc1)C(=O)O the results were T. gondii 7.4.
CC(=O)Nc1ccc(C(=O)O)cc1 was read as T. gondii 5.7.
For C[C@H]1[C@H](C)CC[C@]2(C(=O)O)CC[C@]3(C)C(=CCC4[C@@]5(C)C[C@@H](O)[C@H](O)[C@@](C)(CO)C5CC[C@]43C)[C@H]12 (some centres undefined) the results were T. gondii 14.3.
`CCN(CC)CCn1c(=O)c(Cc2ccc(OC)cc2)nc2ccccc21` gave T. gondii -5.8.
COc1ccc(-n2nc(CCC(=O)N(C)O)cc2-c2ccc(Cl)cc2)cc1 was read as T. gondii -16.7.
Screening CCOC(=O)c1ccc(N)cc1 returned T. gondii 20.6&15.4.
Screening COc1cc2ncnc(Nc3cccc(O)c3)c2cc1OC returned T. gondii 10.5.
Screening c1cc(OCCN2CCCCC2)cc(-c2n[nH]c3ccc(-c4ncn[nH]4)cc23)c1 returned T. gondii -32.3.
Screening Cc1cc(Cn2cnc3c2CC(C(=O)O)N(C(=O)C(c2ccccc2)c2ccccc2)C3)ccc1N(C)C (centres undefined) returned T. gondii 2.0.
O=C1CCC(c2ccccc2)(C2CCN(Cc3ccc(I)cc3)CC2)C(=O)N1 (centres undefined) was read as T. gondii 11.1.
`CC(=O)NC(Cc1ccccc1)C(=O)O` (centres undefined) gave T. gondii 20.2.
Screening Cc1c(I)c(=O)n(-c2ccccc2)n1C returned T. gondii 9.7.
Screening O=C(O)Cc1ccc2c(c1)C(=O)c1ccccc1CO2 returned T. gondii 19.3.
CCn1c(N)c(C(=O)NC)c(=O)c2ccc(C#C[C@@](C)(O)COC)nc21 was read as T. gondii 13.3.
`CN1CCOC(c2ccccc2)c2ccccc2C1` (centres undefined) gave T. gondii 5.7.
`Cc1cc(CC(C)CC(C)(C)C)n(O)c(=O)c1` (centres undefined) gave T. gondii -84.1*.
Screening Nc1nnnn1-c1ccccc1 returned T. gondii 6.7.
Screening COc1ccc(Cn2ccc3ccc(C(=O)NO)cc32)cc1 returned T. gondii 1.1.
Screening CS(=O)(=O)Nc1ccc2oc3c(OC(F)F)ccc(C(=O)Nc4c(Cl)cncc4Cl)c3c2c1 returned T. gondii 27.8.
Cc1c(NC(=O)c2cccnc2)c(=O)n(-c2ccccc2)n1C was read as T. gondii -15.5&17.7.
OCCN1CCN(CCCN2c3ccccc3Sc3ccc(Cl)cc32)CC1 was read as T. gondii -81.0*.
O=C(CCNNC(=O)c1ccncc1)NCc1ccccc1 was read as T. gondii 15.7.
CCCNC(C)C(=O)Nc1c(C)csc1C(=O)OC (centres undefined) was read as T. gondii 20.0.
For Cc1ccccc1C(=O)Nc1ccc(C(=O)N2CCCC(O)c3cc(Cl)ccc32)c(C)c1 (centres undefined) the results were T. gondii 7.8.
`CC(C(=O)O)c1ccc(C(=O)c2cccs2)cc1` (centres undefined) gave T. gondii 24.0&21.4.
For O=C(Nc1cc2cc[nH]c2cn1)c1ccccc1 the results were T. gondii -32.1.
`CCN1CCN(Cc2ccc(Nc3ncc(F)c(-c4cc(F)c5nc(C)n(C(C)C)c5c4)n3)nc2)CC1` gave T. gondii -82.7*.
Screening Cc1oc(=O)oc1CN1CCN(c2cc3c(cc2F)c(=O)c(C(=O)O)c2n3C(C)S2)CC1 (centres undefined) returned T. gondii 19.8.
COc1ccc(C(=O)NCc2ccc(OCCN(C)C)cc2)cc1OC was read as T. gondii -2.7.
For O=C(c1ccc(C(=O)N2CCC(N3CCCC3)CC2)c(Nc2ccccc2)c1)N1CCC(N2CCCC2)CC1 the results were T. gondii -4.8.
For Oc1ccc(/C=C/c2cc(O)cc(O)c2)cc1 the results were T. gondii 55.3.
For O=c1[nH]c2cc(C(F)(F)F)c(N3CCOCC3)cc2n(CP(=O)(O)O)c1=O the results were T. gondii 10.0.
`C=CC1=C(C(=O)O)N2C(=O)[C@@H](NC(=O)/C(=N/O)c3csc(N)n3)[C@H]2SC1` gave T. gondii 5.5.
For CC1(C)O[C@H]2CC(=O)OC[C@]23[C@H]2CC[C@@]4(C)[C@H](c5ccoc5)OC(=O)[C@H]5O[C@]54[C@]2(C)C(=O)C[C@@H]13 the results were T. gondii 7.5.
Screening O=C(Nc1ccc(OC(F)(F)F)cc1)c1sccc1NCc1ccnc2ccccc12 returned T. gondii -18.1.
Screening CCCCN(CCCC)C(=O)CN1C[C@H](c2ccc3c(c2)OCO3)[C@@H](C(=O)O)[C@@H]1c1ccc(OC)cc1 returned T. gondii 2.8.
C[C@@H]1COC(Nc2ccc3ncnc(Nc4ccc(OCc5nccs5)c(Cl)c4)c3c2)=N1 was read as T. gondii -65.9.
`CC#CCn1c(N2CCC[C@@H](N)C2)nc2c1c(=O)n(Cc1nc(C)c3ccccc3n1)c(=O)n2C` gave T. gondii -0.6.
For C[C@@H](Oc1cc(-n2cnc3ccc(CN4CCN(C)CC4)cc32)sc1C(N)=O)c1ccccc1C(F)(F)F the results were T. gondii -75.7*.
c1ccc(CN(CC2=NCCN2)c2ccccc2)cc1 was read as T. gondii 12.5&11.1.
Screening COc1ccccc1N1CCN(CCCNc2cc(=O)n(C)c(=O)n2C)CC1 returned T. gondii -1.2&1.3.
`CC(=O)[C@H]1CCC2C3C[C@H](C)C4=CC(=O)CC[C@]4(C)C3[C@@H](O)C[C@@]21C` (some centres undefined) gave T. gondii -2.4.
COc1cccc(OC)c1-c1ccc(C[C@H](NC(=O)c2c(Cl)cccc2Cl)C(=O)O)cc1 was read as T. gondii 4.9.
Screening C1CCC(C(CC2CCCCN2)C2CCCCC2)CC1 (centres undefined) returned T. gondii 2.9.
Screening Cc1cc(OCc2nnc(SC3CCCC3)n2-c2cccnc2)ccc1-c1ccc(S(C)(=O)=O)cc1 returned T. gondii -79.2*.
CCOc1ccccc1C(N)=O was read as T. gondii 8.8.
COc1ccc(CNC(=O)c2cc(-c3cncc(C)c3)ncc2-c2nccs2)nc1OC was read as T. gondii 3.2.

In the list so far, 7 contain a Cl atom.
For CN(C)C/C=C/C(=O)Nc1cc2c(Nc3ccc(F)c(Cl)c3)ncnc2cc1O[C@H]1CCOC1 the results were T. gondii -87.8*.
COc1ccc(-n2nc(CCC(=O)N(C)O)cc2-c2ccc(Cl)cc2)cc1 was read as T. gondii -16.7.
Screening CS(=O)(=O)Nc1ccc2oc3c(OC(F)F)ccc(C(=O)Nc4c(Cl)cncc4Cl)c3c2c1 returned T. gondii 27.8.
OCCN1CCN(CCCN2c3ccccc3Sc3ccc(Cl)cc32)CC1 was read as T. gondii -81.0*.
For Cc1ccccc1C(=O)Nc1ccc(C(=O)N2CCCC(O)c3cc(Cl)ccc32)c(C)c1 (centres undefined) the results were T. gondii 7.8.
C[C@@H]1COC(Nc2ccc3ncnc(Nc4ccc(OCc5nccs5)c(Cl)c4)c3c2)=N1 was read as T. gondii -65.9.
COc1cccc(OC)c1-c1ccc(C[C@H](NC(=O)c2c(Cl)cccc2Cl)C(=O)O)cc1 was read as T. gondii 4.9.

(listing goes on)
COc1ccc(S(=O)(=O)N2c3ccc(Cl)cc3[C@](O)(c3ccccc3Cl)[C@@H]2C(=O)N2CCC[C@H]2C(N)=O)cc1OC was read as T. gondii 12.9&11.9.
Screening c1ccc(CC2=NCCN2)cc1 returned T. gondii 6.2&2.8.
Screening COc1cc(/C=C2\CCCN([C@@H](C)c3ccc(F)cc3)C2=O)ccc1-n1cnc(C)c1 returned T. gondii -5.3.
CC(C)N(C[C@H]1O[C@@H](n2cnc3c(N)ncnc32)[C@H](O)[C@@H]1O)C1CC(CCc2nc3ccc(C(C)(C)C)cc3[nH]2)C1 (some centres undefined) was read as T. gondii -64.1&8.5.
Screening C[C@H](Nc1cc(NS(=O)(=O)N2CCC2)nc(SCc2cccc(F)c2F)n1)[C@@H](O)CO returned T. gondii 4.2.
CN(C)[C@@H](CCOc1cccc2ccccc12)c1ccccc1 was read as T. gondii 16.9.
`CC(C)C[C@@H](C(=O)N[C@H](C(=O)OC1CCCC1)c1ccccc1)[C@H](O)C(=O)NO` gave T. gondii -91.3*.
`COc1cc2c(cc1OC)C(=O)CC2` gave T. gondii 5.0.
Screening Cc1cc(OCCN2CCOCC2)nn1-c1ccc2ccccc2c1 returned T. gondii 13.6.
`CC(=O)c1ccc2c(c1)N(CCCN(C)C)c1ccccc1S2` gave T. gondii 7.9&16.8.
For O=C(Cc1ccc(-c2ccc(OCCN3CCOCC3)cc2)cn1)NCc1ccccc1 the results were T. gondii -55.5.
CC(=O)NC[C@H]1CN(c2ccc(-c3ccc(CNCc4cn[nH]n4)cc3)c(F)c2)C(=O)O1 was read as T. gondii -34.7.
Screening CC(C)C1C(=O)N(S(C)(=O)=O)[C@@H]2CCN(C(=O)/C=C/CN3CCCCC3)[C@@H]12 (some centres undefined) returned T. gondii 12.0.
Screening COc1ccc(C(=O)CC(=O)c2ccc(C(C)(C)C)cc2)cc1 returned T. gondii 16.2.

Three entries from above, ordered by count of non-hydrogen atoms, low to high.
`COc1cc2c(cc1OC)C(=O)CC2` gave T. gondii 5.0.
CN(C)[C@@H](CCOc1cccc2ccccc12)c1ccccc1 was read as T. gondii 16.9.
For O=C(Cc1ccc(-c2ccc(OCCN3CCOCC3)cc2)cn1)NCc1ccccc1 the results were T. gondii -55.5.

Only part of the results is shown. The share of hits here may be higher or lower than overall.
